Screens as filed in PubChem.
CtBP-E1A blk – CtBP/E1A binding inhibition; AID 651724; AlphaScreen GST-E1A/His-CtBP binding, 1536-well; hits give low values; control for the full effect not named in the record; activity change, % (no concentration beside the values); hit rate 0.49% among 340,000; in the data active means activity change below about -65%; inconclusive means about -30% to -65%; inactive means above about -30%; further: on the % scale 0 is the no-effect control and ±100 the full control effect; compound concentration not given in the record
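AlphaScreen with 125 nM GST-E1A and 125 nM His-CtBP (5X stocks) in Tris pH 8.0, 300 mM NaCl, BSA, Tween 20, TCEP. Compounds preincubated 2 h at 37 deg C, then glutathione donor/nickel acceptor beads added for 1 h at 37 deg C in dark.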
D2 potentiator – human D2 receptor positive allosteric modulation; DiscoveRx D2 beta-arrestin cells, luminescence, 90 min; 100% = 57 uM dopamine signal; P14416; potentiation, % (no concentration beside the values); hit rate 0.23% among 360,000; active = potentiation of 50% or more; inconclusive = 30% to 50%; inactive = 30% or less;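 further: compound concentration not given in the record; tested on top of an EC20 dose of dopamine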
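PathHunter D2 cells, attached overnight at 37 deg C, received compound in DMSO plus dopamine at EC20 (50 nM final) for 90 min at 37 deg C. Beta-arrestin recruitment was read as luminescence after 1 h with detection reagent at ambient temperature.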
TRPML1 inh – inhibitors of human TRPML1 channel | TRPML1-inducible cells, Ca2+ dye fluorescence, FDSS; hits give low values; inhibition of EC80 agonist-evoked calcium signal | activity change, negative = inhibition, % (test concentration not listed) | hit rate 0.02% among 390,000; in the data active means activity change below about -50%; inconclusive means about -30% to -50%; inactive means above about -30%;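 further: stimulus is agonist 54-4 at its EC80 concentration; on the % scale 0 is the no-effect control and ±100 the full control effect; compound concentration not given in the record; the text of the record puts the active cut at -80%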
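TRPML1-DL cells, Tet-induced overnight (~16 h, 37 °C) at 1,500 cells/well, were loaded with Ca8 no-wash dye plus quencher for 45-90 min at room temperature. Compounds were pinned during FDSS kinetic reading; agonist 54-4 at EC80 (4 uM final) then added.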
Six1-Eya2 inh – inhibitors of human Six1/Eya2 interaction. Q15475+O00167. AlphaScreen GST-Six1/His-Eya2 binding, biochemical; hits give low values; control for the full effect not named in the record. activity change, % (no concentration beside the values). hit rate 0.56% among 360,000; in the data active = activity change below about -65%; inconclusive = about -30% to -65%; inactive = above about -30%; further: on the % scale 0 is the no-effect control and ±100 the full control effect; compound concentration not given in the record
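GST-Six1 + His-Eya2 (5X stock: 250/500 nM); Tris pH 8.0, 300 mM NaCl, 0.05% BSA, 0.02% Tween 20; GSH donor/Ni acceptor beads; 1 h 37 °C dark; AlphaScreen readout.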
TRPML1 agonist – activates the human TRPML1 channel; activation, % (test concentration not listed); TRPML1-expressing cells, Ca2+ dye fluorescence, FDSS; host cell line not named in the record; reference of the full effect not given here; hit rate 0.12% among 410,000; Q9GZU1; AID 624414; in the data active = activation above about 50%; inconclusive = about 30% to 50%; inactive = below about 30%; further: 0% is about no effect; the text of the record puts the active cut at 80%
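Agonist activity was taken from a 110 s kinetic Ca2+ dye read on the FDSS after pinning compounds onto TRPML1-DL cells. The cells were seeded at 1,500/well with Tet inducer, incubated about 16 h, then dye-loaded at room temperature.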
TRPV1 PAM – potentiators of human vanilloid receptor 1 (TRPV1) | Q8NER1 | TRPV1-expressing cells, Fluo-8 calcium influx, capsaicin EC20 potentiation; host cell line not named in the record; control for the full effect not named in the record | hit rate 0.02% among 320,000 | AID 540277 | potentiation, % at 8.33 µM; active means potentiation above 80%; inconclusive means 30% to 80%; inactive means below 30%; further: 0% is about no effect
Target sequence (Q8NER1 whole entry, looked up): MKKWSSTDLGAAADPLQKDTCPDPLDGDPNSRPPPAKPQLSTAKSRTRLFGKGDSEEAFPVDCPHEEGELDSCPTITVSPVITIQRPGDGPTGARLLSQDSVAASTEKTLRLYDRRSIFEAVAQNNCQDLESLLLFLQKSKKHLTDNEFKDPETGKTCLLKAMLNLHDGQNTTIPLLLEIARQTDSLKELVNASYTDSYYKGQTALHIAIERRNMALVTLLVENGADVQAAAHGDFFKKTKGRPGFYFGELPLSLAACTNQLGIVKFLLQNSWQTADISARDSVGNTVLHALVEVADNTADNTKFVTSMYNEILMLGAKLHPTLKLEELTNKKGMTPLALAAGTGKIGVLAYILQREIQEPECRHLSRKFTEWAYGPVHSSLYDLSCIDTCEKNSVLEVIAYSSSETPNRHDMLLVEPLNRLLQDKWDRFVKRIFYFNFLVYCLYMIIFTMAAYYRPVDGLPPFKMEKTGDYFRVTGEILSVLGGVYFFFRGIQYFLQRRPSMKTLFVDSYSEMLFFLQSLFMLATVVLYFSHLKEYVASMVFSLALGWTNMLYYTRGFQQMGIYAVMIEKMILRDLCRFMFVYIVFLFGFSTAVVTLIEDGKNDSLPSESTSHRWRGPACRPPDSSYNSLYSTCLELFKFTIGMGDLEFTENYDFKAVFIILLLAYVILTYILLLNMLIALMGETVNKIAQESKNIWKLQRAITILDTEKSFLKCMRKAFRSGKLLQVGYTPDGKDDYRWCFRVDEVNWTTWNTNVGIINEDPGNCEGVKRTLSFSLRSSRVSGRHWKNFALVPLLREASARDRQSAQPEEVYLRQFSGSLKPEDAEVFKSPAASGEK
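Cells expressing TRPV1 were dye-loaded with Fluo-8 and read kinetically: 10 s baseline, 3 min after compound (agonist portion), then 2 min after EC20 capsaicin (allosteric enhancer portion). Calcium-bound dye fluorescence at 480/520 nm.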
The depositor's hits bear a star; u = inconclusive; x = no result given; & = joins results of further samples.

SMILES	TRPML1 agonist	D2 potentiator	TRPML1 inh	Six1-Eya2 inh	TRPV1 PAM	CtBP-E1A blk
O=C(CCCc1ccccn1)c1ccccc1	0.4	-22.6	-16.6	7.2	x	5.7
CC(=O)N1CCCc2cc(S(=O)(=O)N3CCCC(C(=O)N4CCN(c5cccc(Cl)c5)CC4)C3)ccc21 (stereo unspecified)	-0.6&-0.4	8.9	-10.6&-2.4	-12.9	-5.7	x
CCCNC(=O)NC(=O)CSc1ccc2c(c1)OCCO2	1.0	-11.7	23.2	3.8	u	-3.5
COc1ccc(/C=N/NC(=O)c2ccccc2O)cc1Cn1cc([N+](=O)[O-])cn1	x	-7.7	x	-11.2	-9.0	-0.7
Cc1ccc(-c2cc(C(=O)Nc3cc(C)on3)no2)cc1	-0.3	-3.0	-2.4	-19.1	0.3	x
COCCSc1ncnc2c1oc1nc3c(cc12)COC(C)(C)C3	-0.6	-14.0	5.4	1.4	-5.9	x
Cc1nc(C)c(C(=O)N/N=C/c2cn(C)c3ccccc23)s1	-0.1	-5.0	-1.5	-11.6	-1.8	-12.7
COCCN(C(=O)c1csnn1)C(C(=O)NC1CCCCC1)c1sccc1C (stereo unspecified)	0.3	-2.7	14.2	0.0	-3.1	2.3
COc1cc(/C=C/C(=O)NNc2c(F)c(F)cc(F)c2F)ccc1OC(F)F	2.7	5.5	3.3	1.9	6.4	-0.1
NC(=O)N/N=C/c1cc(Br)ccc1OC(=O)c1ccccc1	-0.2	2.9	23.8	-25.5	-10.5	-15.2
O=[N+]([O-])c1ccccc1S(=O)(=O)Nc1cccc(-c2ccc(N3CCCC3)nn2)c1	0.6	-6.1	-1.7	-14.3	2.2	-23.7
O=C(N/N=C/c1sc(N2CCOCC2)nc1-c1ccccc1)c1ccccc1O	1.0	-7.3	-2.8	u	-20.5	u
Cc1cc(C)n2c(Nc3ccc4c(c3)OCCO4)c(-c3ccccn3)nc2n1	-0.7	x	x	-88.8*	x	u
Cn1ncc([N+](=O)[O-])c1C(=O)Nc1nc2ccccc2n1CCN1CCCCC1	-0.7	-35.9	11.1	-16.6	19.1	u
Cc1cccc(CSc2nnc(C)c(=O)n2N)c1	0.1	-14.4	48.0	5.1	-4.4	16.7
CCOc1ccc(-c2ncncc2-c2ccc(OC)cc2)c(O)c1	1.1	5.1	1.6	-4.2	-3.7	-15.6
Cc1nn(CCc2n[nH]c(=S)n2C)c(C)c1Br	-0.1	-10.3	29.8	-1.8	-12.6	-1.2
COc1ccccc1CNC(=O)CSc1nn2c(=O)c(C(C)(C)C)nnc2s1	1.7	-6.9	-23.5	-9.3	9.2	x
COc1cc(-c2nnc(NC(=O)c3ccco3)o2)cc(OC)c1OC	1.1	-9.6	3.3	-26.4	3.9	-30.0
CNC(=O)c1snnc1-c1ccccc1	0.3	-26.4	-8.4	12.8	-4.3	3.2
Nc1nc(-c2ccc3c(c2)OCCO3)cs1	-0.2	-13.3	-9.6	-9.6	-3.2	-1.1
CC(=O)Nc1ccc(/C(C)=N/NC(=O)c2ccncc2)cc1	-0.3	-3.9	-4.2	11.3	-16.0	x
Cc1ccc(NC(C(=O)c2ccccc2)c2ccccc2)cc1 (stereo unspecified)	1.4	-7.6	3.1	-14.0	x	-8.2
CC1CCN(C(=O)COC(=O)c2ccc3c(c2)OCO3)CC1	-0.5	-5.3	-5.7	-11.0	-15.4	12.8
O=S(Cc1cc(Oc2ccccc2)nc(-c2ccccc2)n1)c1ccccc1 (stereo unspecified)	-0.1	-8.0	13.3	-1.7	0.5	-3.8

Brought forward from above: 2 entries; new compounds follow.
SMILES	TRPML1 agonist	D2 potentiator	TRPML1 inh	Six1-Eya2 inh	TRPV1 PAM	CtBP-E1A blk
CC1CCN(C(=O)COC(=O)c2ccc3c(c2)OCO3)CC1	-0.5	-5.3	-5.7	-11.0	-15.4	12.8
O=S(Cc1cc(Oc2ccccc2)nc(-c2ccccc2)n1)c1ccccc1 (stereo unspecified)	-0.1	-8.0	13.3	-1.7	0.5	-3.8
COc1ccc(S(=O)(=O)N2CCCCCC2)cc1C(=O)Nc1cc(C)ccn1	-0.3	-0.7	-9.8	-27.5	1.3	-28.5
Cc1ccc(NC(=O)COc2ccccc2)cc1Cl	-0.7	3.1	-5.3	6.5	7.8	13.1
O=C1/C(=C\Nc2ccc(OC(F)(F)F)cc2)CCN1c1ncccn1	-0.9	-1.6	28.2	-0.7	7.7	-0.2
CC(C)(CC(=O)O)CC(=O)NCc1c(Cl)cccc1Sc1ccc(Cl)cc1	4.1	-8.1	14.5	7.6	u	0.0
NS(=O)(=O)c1ccc(Nc2c([N+](=O)[O-])cncc2[N+](=O)[O-])cc1	0.7	1.6	-0.5	-2.3	8.3	-7.6
CCOc1ccc(S(=O)(=O)NCCC(=O)Nc2ncccc2C)cc1	0.9	-18.8	-14.7	-8.4	4.2	19.4
CCC1c2ccc(C)n2CCN1C(=O)Nc1cc(Cl)ccc1OC (stereo unspecified)	1.9	-1.7	4.0	-7.5	u	-6.0
Cc1ccc(NC(=O)c2nc3nccc(C)n3n2)c(C)c1	-0.6	-12.3	23.7	-1.2	-1.0	-0.6
CCOc1ccc(NC(=O)CSc2nnc(-c3cc(C)[nH]n3)n2N)cc1	-0.2	-0.7	-8.5	-1.7	14.1	-0.7
Cn1nc(-c2ccc(Cl)cc2)c2cc(C(=O)NCCCN3CCCC3)sc21	0.7	10.9	-18.0	-21.6	7.9	u
COC(=O)C1CCN(c2cnccn2)CC1	-0.7	-0.4	-2.4	2.0	1.0	4.4
Cc1cc(C)c(S(=O)(=O)N2CCOC2CNC(=O)C(=O)NCCc2c[nH]c3ccccc23)c(C)c1 (stereo unspecified)	0.0	-4.1	-1.4	1.1	11.7	-6.1
COc1ccc(C2CC(=O)C=C(O)C2)cc1 (stereo unspecified)	0.5	-14.5	9.3	11.0	-4.9	11.1
COc1ccccc1NC(=O)NNC(=O)CCN1CCOCC1	-0.4	-7.7	-15.8	2.0	-8.0	12.0
NS(=O)(=O)c1ccc(CNC(=O)CCCSc2ccccc2)cc1	-0.8	-0.1	-14.8	2.4	-34.8	-3.8
CCCCNc1nc2ccccc2n1CC(=O)N1CCc2ccccc2C1	-0.9	-26.7	16.6	-0.1	-7.7	-1.1
N#Cc1c(NC(=O)CN2CCOCC2)oc(-c2ccccc2)c1-c1ccccc1	1.6	-7.6	-4.0	-21.2	-12.8	-14.4
CCCC(=O)Nc1ncnc2c1ncn2[C@@H]1O[C@@H]2OP(=O)(O)OC[C@H]2[C@H]1OC(=O)CCC	-0.8	-31.4	-4.6	1.8	8.5	0.2
O=C(O)C1CCN(C(=O)c2csc(-c3ccc4c(c3)CCO4)n2)CC1	1.0	-4.5	6.7	-0.6	12.1	4.5
Cc1ccc(/C=C2\SC(N)=NC2=O)s1	-0.3	-21.7	-9.5	0.8	-1.3	7.2
COc1cc(C2c3c([nH]c(=O)[nH]c3=O)Nc3ccc4ccccc4c32)ccc1O (stereo unspecified)	1.0	4.3	-2.3	-18.4	9.6	-3.2
C/C(Cn1nnc2ccccc21)=N\OC(=O)c1ccccc1C	2.8	-7.1	32.9	-0.8	5.0	11.7
CC(C)(C)C(=O)COC(=O)c1cccc(NC(=O)c2ccco2)c1	-1.0	-3.6	-4.7	5.3	5.4	-2.2
O=C(CCc1nc2ccccc2c(=O)[nH]1)N1CCN(C/C=C/c2ccccc2)CC1	-1.1	-10.7	0.8	-0.1	-21.0	-0.4
CCOC(=O)C1=NNC(C(=O)c2ccc(Cl)cc2)C1c1ccccc1 (stereo unspecified)	-0.2	-39.6	3.5	-1.9	2.2	0.1

Single entries from the list:
Six1-Eya2 inh result of `O=C(O)C1CCN(C(=O)c2csc(-c3ccc4c(c3)CCO4)n2)CC1` = -0.6
D2 potentiator result of `CCOc1ccc(NC(=O)CSc2nnc(-c3cc(C)[nH]n3)n2N)cc1` = -0.7
D2 potentiator result of `CCC1c2ccc(C)n2CCN1C(=O)Nc1cc(Cl)ccc1OC` (stereo unspecified) = -1.7

(list continues)
SMILES	TRPML1 agonist	D2 potentiator	TRPML1 inh	Six1-Eya2 inh	TRPV1 PAM	CtBP-E1A blk
CCCCn1nc2cc(C(=O)NC3CCc4ccccc43)ccc2c1OCC (stereo unspecified)	1.0	-0.9	-2.2	-2.8	u	3.0
CCCCOc1nc(N2CCOCC2)nc(C)c1[N+](=O)[O-]	2.7	1.7	-3.3	-6.6	4.1	4.5
CCCCCNC(=O)C1CCC(Cn2c(=S)[nH]c3ccccc3c2=O)CC1 (stereo unspecified)	0.0	0.2	81.3	3.4	-7.4	1.8
O=C1COc2ccc(C(=O)COC(=O)CCSc3ccccc3)cc2N1	2.0	1.5	8.9	-0.1	-11.4	x
O=C(CC1C(=O)Nc2ccccc2N1CC(=O)N1CCCC1)Nc1ccc(Br)cc1 (stereo unspecified)	0.0	-3.7	6.6	-1.3	16.5	3.0
NC(=O)Oc1cccc(OC(N)=O)c1	0.3	-14.6	13.9	5.0	u	x
O=C1OC(Nc2nc3ccccc3s2)c2ccccc21 (stereo unspecified)	0.4	-20.1	7.2	1.5	1.5	6.6
Cc1cc(C)cc(N(CC(=O)Nc2ccc(-c3nc4ccc(C)cc4s3)cc2)S(C)(=O)=O)c1	0.1	-3.2	1.5	0.9	0.8	-4.0
Cc1cc(F)ccc1S(=O)(=O)Nc1ccccc1C(=O)Nc1ncn[nH]1	-0.3	11.4	-0.8	4.1	-5.0	4.5
COc1cc(C2=CN(Cc3ccccc3)CCC2=O)cc(OC)c1OC	1.2	-6.9	18.0	-5.0	x	0.2
COC(=O)C(Cc1c[nH]c2ccccc12)NC(=O)C(=O)c1c[nH]c2ccccc12 (stereo unspecified)	-0.1	-5.7	-14.8	-3.1	-3.1	-10.6
Cn1c(SCC(=O)NCC2CCCO2)nnc1-c1cccc(NC(=O)c2ccccc2F)c1 (stereo unspecified)	-0.2	-6.4	-1.5	0.7	-0.5	12.8
CN1CCN(C(=O)c2ccc3c(=O)n(Cc4ccco4)c(=S)[nH]c3c2)CC1	0.5	-6.0	8.7	-1.1	20.2	-19.0
